From PubChem BioAssay
Cruzain Triton: blocks cruzain activity in presence of Triton detergent; P25779; purified cruzain, Z-FR-AMC fluorescence, 0.01% Triton; Potency, µM, without a hit: max response, negative = inhibition, actives largely listed as inhibitors; hit rate 0.43% among 200,000; AID 1478;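 note: plate controls were neutral wells for no effect and buffer without enzyme for full effect; nearly all actives have a fitted effect of over 40% in size; top concentration of the series not given in the record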
Target sequence (P25779 123-467 limits assumed): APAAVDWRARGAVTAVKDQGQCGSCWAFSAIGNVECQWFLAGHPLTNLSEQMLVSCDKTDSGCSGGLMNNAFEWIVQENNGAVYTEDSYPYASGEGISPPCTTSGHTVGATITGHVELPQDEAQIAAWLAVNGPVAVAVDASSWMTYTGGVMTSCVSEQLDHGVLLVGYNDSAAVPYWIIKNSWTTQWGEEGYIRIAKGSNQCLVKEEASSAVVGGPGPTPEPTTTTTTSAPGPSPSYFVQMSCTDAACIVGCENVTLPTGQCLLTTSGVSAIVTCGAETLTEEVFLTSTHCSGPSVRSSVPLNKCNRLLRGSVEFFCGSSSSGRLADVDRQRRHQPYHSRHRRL
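Detergent-containing arm of a paired screen for aggregation-based inhibition: 0.01% Triton X-100 present. Cruzain at 1.5 nM cleaved 2 uM Z-FR-AMC at pH 5.5 with 5 mM DTT; AMC fluorescence gain over 60 s measured activity.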
Cruzain inh noDet: blocks cruzain activity in detergent-free assay | Potency, µM, inactives show max response, negative = inhibition, hits mostly inhibitors | hit rate 2.3% among 200,000 | purified cruzain, Z-FR-AMC fluorescence, no detergent | P25779;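 note: plate controls were enzyme without inhibitor for no effect and buffer without enzyme for full effect; nearly all actives have a fitted effect of over 40% in size; top concentration of the series not given in the record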
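Detergent-free condition (0.00005% Triton X-100) in acetate buffer pH 5.5 with DTT. 1.5 nM enzyme and compound were pre-mixed 15 min, then 2 uM Z-FR-AMC substrate added; reaction progress from fluorescence change between first and third reads (60 s).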
Active calls of the source: *; ? = inconclusive; & = joins results of further samples. Calls come from the whole dose curve; as a rule, active = well fitted curve in the direction sought with a large enough effect; inconclusive = small, poorly fitted or top-dose-only effect, or another doubt; inactive = no such curve, though single readings can be large; an effect the other way counts as inactive or inconclusive. Potency is the fitted concentration of half-maximal effect. These rows are one share of the data; the hit share may differ from the screen's.

mol | Cruzain Triton | Cruzain inh noDet
CCCCCCCCCCCCCCCC(=O)NC(C)C(=O)O (stereo not drawn) | -8.6% | 13%
CCC(O)OC(O)CC (stereo not drawn) | -2.4%&4.6% | -18%&6%
CC(=O)c1cc(C)oc1C | 0.6% | -3%
CCCn1c(-c2ccc(F)cc2)nc2c(NCCN3CCOCC3)nc(C)nc21 | 1.1% | -3%
CCC[C@@H]1C[C@@]1(CCC)[C@@H](NC(=O)Oc1ccccc1)c1ccc(C(=O)OC)cc1 | -0.3% | 2%
COC(=O)[C@@H]1C[C@@H]2CC[C@@H](O)C[C@@H]2N1CC1CCCCC1 | -0.2% | 3%
CC1=CC(=O)C2=C(C)C[C@@H](O)[C@@H]3[C@@H](OC(=O)[C@H]3C)[C@H]12 | 2.3% | 3%
O=C(NC1CCCC1)O[C@@H]1C(=O)c2cc(Br)ccc2O[C@H]1c1ccc2c(c1)OCO2 | -4.2% | 2%
CCC/C=C(\CCC)C(NS(=O)(=O)c1cccs1)c1ccc(C(=O)OC)cc1 (stereo not drawn) | -5.9% | -7%
CCCn1c(-c2ccc(F)cc2)nc2c(NCC(C)(C)CN(C)C)nc(C)nc21 | -3.1% | -3%
C=C1CCC(O)C/C1=C\C=C1/CCCC2(C)C1CCC2C(C)/C=C/C(C)C(C)C (stereo not drawn) | -6.0% | ?
COC1=C[C@H]2C3=C([C@H]2C1=O)[C@H](NC(C)=O)CCc1cc(OC)c(OC)c(OC)c13 | 0.7% | -3%
NNc1ccccc1 | -4.7% | -5%
CCCCC/C=C\C/C=C\CCCCCCCC(=O)NC(C)C(=O)O (stereo not drawn) | 8.6% | 13%
CCN(CC)CCSC(=O)C(c1ccccc1)c1ccccc1 | -1.4% | -4%
CCC1=C2CC[C@H]3C(=O)N(CC)C(=O)[C@H]3[C@H]2[C@@]2(C)C(=NCCc3c[nH]c4ccccc34)OC(=O)N2C1=O | 0.5% | 14%
c1cc2ccc3cccc4ccc(c1)c2c34 | -0.6% | -13%
CC[C@@]12C=C(/C=C/c3ccccc3)[C@](CC)(C1)[C@H](c1ccccc1)CC2=O | 1.3% | -9%
CC(C)C[C@@H](CC(=O)N[C@H](CC(=O)N[C@@H]1CCNC[C@H]1C(=O)N[C@H](CC(=O)N[C@@H](CCC(=O)O)CC(=O)O)Cc1ccccc1)C(C)C)NC(=O)[C@@H]1CNCC[C@H]1N | 8.3% | -5%
CCN(CC)CCn1c(-c2ccccc2)nc2c(NCCO)nc(C)nc21 | 2.8% | -1%
CCCCC/C=C\C/C=C\C/C=C\C/C=C\CCCCCC(=O)NC(C)C(=O)O (stereo not drawn) | 0.2% | 8%
CC/C(=C(\c1ccccc1)c1ccc(OCCN(C)C)cc1)c1ccc(O)cc1 | 1.0% | -4%
C1CCCC1 | 2.9% | 1%
CCCCC[C@H](O)/C=C/[C@H]1OC(=O)C[C@H](O)[C@@H]1C/C=C\CCCC(=O)O | 3.3% | 0%
CCCCC1=CC2=C(OC(C)=O)C(=O)C(C)(OC(=O)CC)C(=O)C2=CO1 (stereo not drawn) | -0.1% | 1%
COC(=O)c1ccc(C(NC(=O)OCc2ccccc2)/C(C)=C/[C@@H](C)C(=O)N[C@@H](CO)Cc2ccccc2)cc1 (stereo partly drawn) | -1.6% | -2%
Nc1ccc([N+](=O)[O-])cc1N | 1.8% | -7%
C=C(C)[C@H]1CC=C(CO)CC1 | 0.0% | 6%
COc1ccc2c(c1)C(=O)[C@H](OC(=O)Nc1ccc(C)c(Br)c1)[C@@H](c1ccc(OC)c(Br)c1)O2 | -1.4% | ?
CCN(CC)CCCCn1c(-c2ccccc2)nc2c(Nc3ccccc3)nc(C)nc21 | 4.0% | 2%

Entries of single compounds, quoted from the list:
`CCCCC[C@H](O)/C=C/[C@H]1OC(=O)C[C@H](O)[C@@H]1C/C=C\CCCC(=O)O` is listed with Cruzain Triton = 3.3%; Cruzain inh noDet = 0%
`CCN(CC)CCCCn1c(-c2ccccc2)nc2c(Nc3ccccc3)nc(C)nc21` is listed with Cruzain Triton = 4.0%; Cruzain inh noDet = 2%

Next section:
mol | Cruzain Triton | Cruzain inh noDet
COC(=O)[C@@]1(Cc2ccccc2)[C@H]2c3cc(C(=O)N4CCCC4)n(Cc4ccc(S(C)(=O)=O)cc4)c3C[C@H]2CN1C(=O)c1ccccc1 | 1.0% | ?
CCOC(=O)[C@H](CCc1ccccc1)N[C@@H](C)C(=O)N1[C@H](C(=O)O)C[C@H]2CCC[C@@H]21 | -3.3% | -10%
COC(=O)Nc1cccc(OC(=O)Nc2cccc(C)c2)c1 | 0.6% | 0%
NCc1ccccc1CC(=O)N[C@@H]1C(=O)N2C(C(=O)O)=C(CSc3nnnn3CC(=O)O)CS[C@@H]12 | 1.3% | 1%
CCC/C=C(\CCC)C(NC(=O)Oc1ccc(F)cc1)c1ccc(C(=O)OC)cc1 (stereo not drawn) | 2.9% | 2%
CCc1c2c(nc3cccc(OC)c13)OC(CC)C2 (stereo not drawn) | -0.1% | 1%
CCCCCCCC/C=C\CCCCCCCC(=O)NCCCC(=O)O | 0.7% | 0%
C=C1c2cccc(C(F)(F)F)c2O[C@H](C(=O)OCC)[C@@H]1CCCCCC | 7.5% | -1%
CCC1=C2CC[C@H]3C(=O)NC(=O)[C@H]3[C@H]2[C@@]2(C)C(=NCC3CC3)OC(=O)N2C1=O | 3.3% | -6%
CO | 3.0% | -5%
CC/C=C\C/C=C\C/C=C\C/C=C\C/C=C\CCCC(=O)O | 3.9% | -13%
CC(=O)[O-].CC(=O)[O-].O.O.O.[Pb+2] | 2.8%&3.4% | 20%&3%
COC(=O)N/N=C/C1=C[N+](=O)c2ccccc2[N+]1=O | -2.1% | -12%
CC[C@H]1C2=C3C(CC[C@H]4C(OCc5ccc(F)cc5C(F)(F)F)OC[C@](C)([C@@H]34)N(C(=O)OC(C)(C)C)C2)C(COC(C)=O)C1COC(C)=O (stereo partly drawn) | -4.9% | ?
CCc1c2c(nc3c(C(C)C)cccc13)-c1cccc(=O)n1C2 | -14% | ?
CC(C)c1cc2c(c(O)c1O)[C@@]1(C(=O)O)CCCC(C)(C)[C@@H]1CC2 | -6.1% | 6%
c1ccc(C2CO2)cc1 (stereo not drawn) | 4.0% | -2%
CCCCC[C@H](O)C/C=C1/C(=O)C=C[C@@H]1C/C=C\CCCC(=O)O | -2.3% | -3%
O=C(/C=C/c1ccc(O)c(O)c1)O[C@@H](C(=O)O)[C@@H](OC(=O)/C=C/c1ccc(O)c(O)c1)C(=O)O | -4.6% | -9%
COC(=O)[C@@]1(Cc2ccccc2)[C@H]2c3cc(C(=O)N4CCCC4)n(Cc4cc(F)cc5c4OCOC5)c3C[C@H]2CN1C(=O)c1ccccc1 | -6.1% | ?
Cc1nc(Nc2ccccc2)c2nc(-c3ccccc3)n(CCCN3CCCCC3C)c2n1 (stereo not drawn) | -1.7% | -6%
COC(=O)c1ccc(C(NC(=O)OCc2ccccc2)/C(C)=C/[C@@H](C)C(=O)N2CCN(C)CC2)cc1 (stereo partly drawn) | -3.9% | -5%
C[C@H]1C2=C3C(C[C@H]4C(=O)N(c5ccccc5)C(=O)[C@H]4[C@H]3[C@@]3(Cc4ccccc4)C(=NCCc4c[nH]c5ccccc45)OC(=O)N3C2=O)[C@H]2C(=O)N(c3ccccc3)C(=O)[C@H]21 (stereo partly drawn) | 3.2% | ?
CC1CC2(C)Oc3ccccc3C3OCC1(COC(=O)Nc1ccccc1)C(C)C32 (stereo not drawn) | 3.0% | -4%
O=C1O[C@@H]([C@@H](O)CO)[C@@H](O)[C@H]1O | 0.6% | -13%
COC(=O)c1ccc(C(NC(=O)OCc2ccccc2)/C(I)=C/[C@@H](C)C(=O)NCc2ccncc2)cc1 (stereo partly drawn) | -1.6% | -1%
CC/C=C\C/C=C\C/C=C\C/C=C\C/C=C\C/C=C\CCC(=O)NCC(=O)O | -5.6% | -4%
[C-]#[N+]/C(C#N)=C\c1cc(C(C)(C)C)c(O)c(C(C)(C)C)c1 | ? | -17%
O=c1cccc2n1CC1CC2CN2CCCC[C@H]12 (stereo partly drawn) | 6.7% | 8%
COC(=O)c1ccc(C(NC(=O)OCc2ccccc2)/C(=C/[C@@H](C)C(=O)N(C)C)c2cccnc2)cc1 (stereo partly drawn) | 4.9% | ?
Cc1nc(NCc2ccccc2)c2nc(-c3ccccc3)n(CCN3CCOCC3)c2n1 | -5.4% | ?
Nc1ncnc2c1ncn2[C@@H]1O[C@@H]2CO[P@](=O)(S)O[C@H]2[C@H]1O | 5.1% | 5%
CCCCC/C=C/C=C/C=O | -1.6% | 1%
CCCCCCCCCCCCOCC1CO1 (stereo not drawn) | 9.2% | -3%
CC(/C=C/C=C(C)/C=C/C(=O)O)=C\C=C\C=C(C)\C=C\C=C(C)\C=C\C(=O)O | -14% | ?
CC1CCC(C(C)C)C(O)C1 (stereo not drawn) | -1.1% | -2%
CCCCNc1nc(C)nc2c1nc(-c1ccccc1)n2CC1CCCN1CC (stereo not drawn) | -11% | -6%
NC(C(=O)O)[C@@H]1CC(Cl)=NO1 (stereo partly drawn) | 3.0% | -1%
Cc1coc2c1CCC(C)C2 (stereo not drawn) | 5.1% | 2%
CC(=O)OC[C@]12C[C@H](OC(=O)CC(C)C)C(C)=C[C@H]1O[C@H]1[C@H](O)[C@@H](OC(C)=O)[C@@]2(C)[C@]12CO2 | -0.6% | ?
COC1CC(O[C@H]2/C(C)=C/CC3CC(C[C@]4(CCC(C)C(C5CCCCC5)O4)O3)OC(=O)[C@H]3C=C(C)/C(=N/O)C4OC/C(=C\C=C\[C@@H]2C)[C@@]43O)OC(C)C1O (stereo partly drawn) | -1.0% | ?
CC(C)C[C@@H](CC(=O)N[C@@H](CCC(=O)O)CC(=O)O)NC(=O)[C@@H]1CNCC[C@H]1NC(=O)C[C@@H](NC(=O)C[C@H](CO)NC(=O)[C@@H]1CNCC[C@H]1N)C(C)C | 4.3% | 4%
Cc1nc(NCCO)c2nc(-c3ccccc3)n(CC3CCN(C)CC3)c2n1 | 2.1% | -4%
C=C(CC1([C@@H](NP(=O)(c2ccccc2)c2ccccc2)[C@H]2C[C@@H]2CCCC)CC1)c1cccc(OC)c1 | -0.8% | -14%
C[N+]1(C)CC[C@@H](OC(=O)[C@@](O)(c2ccccc2)C2CCCC2)C1 | -0.9% | -8%

Overlap with the part before: five entries, then new ones.
mol | Cruzain Triton | Cruzain inh noDet
COC1CC(O[C@H]2/C(C)=C/CC3CC(C[C@]4(CCC(C)C(C5CCCCC5)O4)O3)OC(=O)[C@H]3C=C(C)/C(=N/O)C4OC/C(=C\C=C\[C@@H]2C)[C@@]43O)OC(C)C1O (stereo partly drawn) | -1.0% | ?
CC(C)C[C@@H](CC(=O)N[C@@H](CCC(=O)O)CC(=O)O)NC(=O)[C@@H]1CNCC[C@H]1NC(=O)C[C@@H](NC(=O)C[C@H](CO)NC(=O)[C@@H]1CNCC[C@H]1N)C(C)C | 4.3% | 4%
Cc1nc(NCCO)c2nc(-c3ccccc3)n(CC3CCN(C)CC3)c2n1 | 2.1% | -4%
C=C(CC1([C@@H](NP(=O)(c2ccccc2)c2ccccc2)[C@H]2C[C@@H]2CCCC)CC1)c1cccc(OC)c1 | -0.8% | -14%
C[N+]1(C)CC[C@@H](OC(=O)[C@@](O)(c2ccccc2)C2CCCC2)C1 | -0.9% | -8%
N[C@@H](Cc1ccc(O)cc1)C(=O)O | 0.4% | -5%
Nc1nc(-c2ccc(Cl)c(Cl)c2)c(-c2ccncc2)s1 | -4.4% | ?
CC(C)N=C=NC(C)C | 2.3% | -4%
CC1=C2[C@H](/C=C(\C)C(=O)O)CC[C@@H](C)[C@H]2CC1 | -4.7% | 4%
COc1cccc([C@@H]2Oc3ccc(OC)cc3C[C@H]2OC(=O)Nc2ccc(OC(F)F)cc2)c1 | 2.6% | -1%
COC(=O)[C@@]1(Cc2ccc(F)cc2)[C@H]2c3cc(C(=O)N(C)C)n(Cc4cc(F)c(F)c(F)c4)c3C[C@H]2CN1C(=O)c1ccccc1 | 0.5% | 3%
C=C[C@H]1CCC=C2C(=O)CCC[C@@H]21 | -3.6% | 27%
C=C1C(O)C2OC3(CCC(/C=C/C(C)C4CC(C)=CC5(OC(CC(C)(O)C(=O)O)CCC5O)O4)O3)CCC2OC1C(O)CC(C)C1OC2(CCCCO2)CCC1C (stereo not drawn) | 0.6% | -3%
CCC1=C(OC(=O)N(CC)CC)N2C(=O)OC(=NCCOC)[C@]2(C)[C@H]2C1=CC[C@H]1C(=O)NC(=O)[C@H]12 | -0.6% | 22%
COC(=O)C(C(C)=O)C(NC(=O)OC(C)(C)C)c1ccccc1 (stereo not drawn) | 2.4% | 14%
CC=C(Cl)Cl | 4.9% | -1%
C=CC(=O)NC(C)C | 7.4% | -2%
COc1cccc([C@@H]2Oc3ccc(Br)cc3C(=O)[C@H]2OC(=O)NS(=O)(=O)c2ccc(C)cc2)c1 | 0.7% | -11%
CCCC/C=C/C(NC(=O)c1ccc(C(F)(F)F)cc1)c1ccccc1 (stereo not drawn) | 0.8% | 2%
COc1cccc([C@@H]2Oc3ccc(Br)cc3C(=O)[C@H]2OC(=O)NCCOc2ccccc2)c1 | -1.5% | -4%
O=c1cc(-c2cccc(O)c2)oc2cccc(O)c12 | -2.0% | -10%
